# Screening results as filed in PubChem BioAssay.
# A1 apoptosis 2 – compounds inhibiting A1, read as caspase activation | MEF A1-2A-BIM cells, caspase-Glo luminescence, 3 h; percent of clofoctol response, DMSO zero | caspase activation, % (no concentration beside the values) | 24,000 tested, under 10 active; in the data active means caspase activation above about 5.9%;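 further: wells of about 30 µL received 50 nL stock; the first replicate is given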
#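 Evaluation: Caspase-3/7 activity from luminescence increase | Assay system: A1-2A-BIM mouse embryonic fibroblasts | Quantity: 2500 MEF cells/well | Medium: RPMI-1640 plus 10% FBS | Detection: Caspase-Glo 3/7 luminescence, 1 h at room temperature | Dosing: 50 nL compound per well, pinned | Timing: Cells settled overnight, compound exposure 3 h at 37 °C, 5% CO2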
# * hit, by the source's call. An excerpt; count on the stated rates, not on these rows.
SMILES,A1 apoptosis 2
C[C@H]1CN([C@@H](C)CO)C(=O)Cc2cc(NC(=O)CCCCCC(=O)Nc3ccccc3N)ccc2O[C@H]1CN(C)C(=O)Nc1ccc(C(F)(F)F)cc1,1.3
C[C@@H]1CCCCO[C@H](CN(C)Cc2ccc(C(F)(F)F)cc2)[C@H](C)CN([C@H](C)CO)C(=O)c2cc(NC(=O)Cc3ccccc3)ccc2O1,-1.0
C[C@@H]1CN([C@H](C)CO)C(=O)c2cccc(NC(=O)c3ccncc3)c2O[C@@H]1CN(C)C(=O)Nc1ccc2c(c1)OCO2,-0.5
CC(C)NC(=O)N(C)C[C@H]1Oc2ccc(NC(=O)Cn3cnnn3)cc2C(=O)N([C@H](C)CO)C[C@@H]1C,-0.3
Cc1noc(C)c1NC(=O)Nc1ccc2c(c1)C(=O)N([C@H](C)CO)C[C@H](C)[C@@H](CN(C)Cc1ccncc1)O2,1.6
C[C@@H]1CCCCO[C@H](CN(C)C(=O)c2ccncc2)[C@H](C)CN([C@H](C)CO)C(=O)c2cc(NS(=O)(=O)c3ccc(F)cc3)ccc2O1,0.8
COc1ccc(NC(=O)Nc2ccc3c(c2)CC(=O)N([C@@H](C)CO)C[C@H](C)[C@@H](CN(C)Cc2ccc(-c4ccccc4)cc2)O3)cc1,0.4
C[C@H]1CN([C@@H](C)CO)C(=O)c2cccc(NS(=O)(=O)c3ccccc3)c2O[C@H]1CN(C)S(C)(=O)=O,0.5
C[C@@H]1CN([C@H](C)CO)C(=O)c2cccc(NC(=O)c3ccncc3)c2O[C@H]1CN(C)S(=O)(=O)c1ccc(F)cc1,-0.4
CNC[C@@H]1OCCCC[C@H](C)Oc2ccc(NC(=O)Cc3ccccc3)cc2C(=O)N([C@H](C)CO)C[C@@H]1C,-0.6
C[C@H]1CN([C@@H](C)CO)C(=O)c2cc(NC(=O)CCC(F)(F)F)ccc2O[C@H]1CN(C)CC1CCCCC1,-1.0
C[C@@H]1CN([C@H](C)CO)C(=O)c2cc(NS(=O)(=O)c3ccc(F)cc3)ccc2O[C@@H](C)CCCCO[C@H]1CN(C)S(=O)(=O)c1ccc(F)cc1,-2.2
CNC[C@H]1OCCCC[C@H](C)Oc2ccc(NS(=O)(=O)c3ccc(F)cc3)cc2C(=O)N([C@@H](C)CO)C[C@@H]1C,0.1
COc1ccc(CN(C)C[C@@H]2OCCCC[C@H](C)Oc3ccc(NS(=O)(=O)c4ccc(C)cc4)cc3C(=O)N([C@@H](C)CO)C[C@H]2C)cc1,0.9
CC(C)NC(=O)N(C)C[C@@H]1Oc2c(NC(=O)c3nc4ccccc4s3)cccc2C(=O)N([C@@H](C)CO)C[C@H]1C,0.0
CC(C)NC(=O)N(C)C[C@@H]1Oc2c(NC(=O)C3CCOCC3)cccc2C(=O)N([C@@H](C)CO)C[C@@H]1C,-0.4
C[C@@H]1CN([C@H](C)CO)C(=O)c2cccc(NC(=O)Nc3ccc(F)cc3)c2O[C@@H]1CN(C)Cc1ccccc1,0.2
C[C@@H]1CN([C@H](C)CO)C(=O)c2cccc(NC(=O)Nc3ccc(F)cc3)c2O[C@@H]1CN(C)S(=O)(=O)c1cccs1,-0.6
C[C@@H]1CCCCO[C@@H](CN(C)C(=O)C2CCCCC2)[C@@H](C)CN([C@@H](C)CO)C(=O)c2cc(N(C)C)ccc2O1,-0.4
Cc1noc(C)c1NC(=O)N(C)C[C@H]1Oc2ccc(NC(=O)Cc3ccccc3)cc2C(=O)N([C@H](C)CO)C[C@@H]1C,0.6
COc1ccc(CN(C)C[C@H]2Oc3ccc(NC(=O)NC4CCCCC4)cc3C(=O)N([C@@H](C)CO)C[C@H]2C)cc1,-0.2
C[C@@H]1CN([C@@H](C)CO)C(=O)c2cc(NS(=O)(=O)c3ccccc3)ccc2O[C@@H](C)CCCCO[C@@H]1CN(C)C(=O)c1ccncc1,1.7
CNC[C@@H]1OCCCC[C@@H](C)Oc2ccc(NC(=O)C3CCCCC3)cc2C(=O)N([C@H](C)CO)C[C@H]1C,-0.4
C[C@@H]1CN([C@H](C)CO)C(=O)CCCn2nncc2CO[C@@H]1CN(C)S(=O)(=O)c1ccc2ccccc2c1,-0.2
C[C@@H]1CN([C@@H](C)CO)C(=O)c2cc(NS(=O)(=O)c3ccc(Cl)cc3)ccc2O[C@H]1CN(C)C(=O)Nc1ccc(F)cc1,-1.3

# Reprinted from the part before: two compounds; new compounds follow.
SMILES,A1 apoptosis 2
C[C@@H]1CN([C@H](C)CO)C(=O)CCCn2nncc2CO[C@@H]1CN(C)S(=O)(=O)c1ccc2ccccc2c1,-0.2
C[C@@H]1CN([C@@H](C)CO)C(=O)c2cc(NS(=O)(=O)c3ccc(Cl)cc3)ccc2O[C@H]1CN(C)C(=O)Nc1ccc(F)cc1,-1.3
COc1ccc(NC(=O)N(C)C[C@H]2OCCCC[C@H](C)Oc3ccc(NC(=O)Nc4ccccc4)cc3C(=O)N([C@@H](C)CO)C[C@H]2C)cc1,-1.2
C[C@@H]1CCCCO[C@H](CN(C)C(=O)c2ccccc2)[C@H](C)CN([C@@H](C)CO)C(=O)c2cc(NC(=O)c3ccncc3)ccc2O1,-1.6
C[C@H]1CN([C@@H](C)CO)C(=O)c2cc(NC(=O)Nc3cccc4ccccc34)ccc2O[C@@H]1CN(C)Cc1ccc(Cl)c(Cl)c1,0.2
COc1ccc(NC(=O)Nc2ccc3c(c2)C(=O)N([C@H](C)CO)C[C@@H](C)[C@H](CN(C)Cc2ccc4c(c2)OCO4)O3)cc1,0.9
COc1ccc(S(=O)(=O)Nc2ccc3c(c2)C(=O)N([C@@H](C)CO)C[C@@H](C)[C@H](CN(C)S(=O)(=O)c2ccccc2)O3)cc1,0.8
COc1ccc(NC(=O)Nc2cccc3c2O[C@H](CN(C)Cc2ccc(Cl)c(Cl)c2)[C@@H](C)CN([C@@H](C)CO)C3=O)cc1,-2.1
C[C@H](CO)N1C[C@H](C)[C@H](CN(C)C(=O)NC2CCCCC2)Oc2ccc(NC(=O)Nc3ccc(F)cc3)cc2CC1=O,0.1
C[C@@H]1CN([C@@H](C)CO)C(=O)Cc2cc(NS(=O)(=O)c3cn(C)cn3)ccc2O[C@H]1CN(C)S(C)(=O)=O,-0.5
C[C@@H]1CN([C@H](C)CO)C(=O)c2cc(NC(=O)Cn3cnnn3)ccc2O[C@@H]1CN(C)Cc1ccc(C(=O)O)cc1,0.9
C[C@@H]1CN([C@@H](C)CO)C(=O)c2cc(NC(=O)Nc3ccc(F)cc3)ccc2O[C@@H]1CN(C)Cc1ccccc1,0.7
COc1ccc(NC(=O)N(C)C[C@H]2Oc3c(cccc3N(C)C)C(=O)N([C@H](C)CO)C[C@H]2C)cc1,0.0
CNC[C@H]1Oc2ccc(NC(=O)Nc3ccc(C(F)(F)F)cc3)cc2CC(=O)N([C@@H](C)CO)C[C@@H]1C,-1.8
COc1ccc(NC(=O)Nc2ccc3c(c2)C(=O)N([C@@H](C)CO)C[C@H](C)[C@H](CN(C)Cc2ccc(C(F)(F)F)cc2)O3)cc1,-1.0
COc1ccc(S(=O)(=O)Nc2ccc3c(c2)C(=O)N([C@@H](C)CO)C[C@@H](C)[C@H](CN(C)C(=O)Nc2ccc4c(c2)OCO4)OCCCC[C@H](C)O3)cc1,-1.1
CC(C)NC(=O)N(C)C[C@H]1OCCCC[C@H](C)Oc2ccc(NS(=O)(=O)c3ccc(F)cc3)cc2C(=O)N([C@H](C)CO)C[C@@H]1C,0.3
C[C@@H]1CN([C@H](C)CO)C(=O)Cc2cc(NC(=O)C3CC3)ccc2O[C@H]1CN(C)S(=O)(=O)c1cn(C)cn1,0.0
CNC[C@H]1Oc2c(NS(=O)(=O)c3ccc(Cl)cc3)cccc2C(=O)N([C@H](C)CO)C[C@@H]1C,-1.7
C[C@@H]1CN([C@H](C)CO)C(=O)c2cccc(NC(=O)Nc3ccc4c(c3)OCO4)c2O[C@@H]1CN(C)Cc1ccc(-c2ccccc2)cc1,0.5
COc1ccc(S(=O)(=O)N(C)C[C@H]2Oc3ccc(NS(C)(=O)=O)cc3CC(=O)N([C@H](C)CO)C[C@H]2C)cc1,-0.6
C[C@@H]1CCCCO[C@@H](CN(C)C(=O)Nc2ccc(C(F)(F)F)cc2)[C@H](C)CN([C@H](C)CO)C(=O)c2cc(NC(=O)c3ccncc3)ccc2O1,0.5
Cc1noc(C)c1S(=O)(=O)N(C)C[C@@H]1OCCCC[C@@H](C)Oc2ccc(NC(=O)C3CCCCC3)cc2C(=O)N([C@H](C)CO)C[C@H]1C,0.6
C[C@@H]1CN([C@H](C)CO)C(=O)c2cccc(NS(=O)(=O)c3ccc(Cl)cc3)c2O[C@H]1CN(C)S(=O)(=O)c1ccccc1,0.6
C[C@H](CO)N1C[C@H](C)[C@H](CN(C)Cc2ccc(Oc3ccccc3)cc2)Oc2ccc(NC(=O)Nc3ccc(C(F)(F)F)cc3)cc2CC1=O,1.6
C[C@H](CO)N1C[C@H](C)[C@@H](CN(C)C(=O)Nc2ccc(C(F)(F)F)cc2)Oc2ccc(NS(=O)(=O)c3ccc(F)cc3)cc2C1=O,-0.8
C[C@H](CO)N1C[C@H](C)[C@H](CN(C)S(=O)(=O)c2ccc(Cl)cc2)Oc2ccc(NC(=O)NC3CCCCC3)cc2CC1=O,0.3

# 3 compounds already listed, sorted by number of heavy atoms, lowest first.
SMILES,A1 apoptosis 2
CNC[C@H]1Oc2ccc(NC(=O)Nc3ccc(C(F)(F)F)cc3)cc2CC(=O)N([C@@H](C)CO)C[C@@H]1C,-1.8
C[C@@H]1CN([C@H](C)CO)C(=O)Cc2cc(NC(=O)C3CC3)ccc2O[C@H]1CN(C)S(=O)(=O)c1cn(C)cn1,0.0
C[C@@H]1CN([C@H](C)CO)C(=O)c2cccc(NC(=O)Nc3ccc4c(c3)OCO4)c2O[C@@H]1CN(C)Cc1ccc(-c2ccccc2)cc1,0.5

# The main list resumes, repeating the two entries before the break.
SMILES,A1 apoptosis 2
C[C@H](CO)N1C[C@H](C)[C@@H](CN(C)C(=O)Nc2ccc(C(F)(F)F)cc2)Oc2ccc(NS(=O)(=O)c3ccc(F)cc3)cc2C1=O,-0.8
C[C@H](CO)N1C[C@H](C)[C@H](CN(C)S(=O)(=O)c2ccc(Cl)cc2)Oc2ccc(NC(=O)NC3CCCCC3)cc2CC1=O,0.3
C[C@@H]1CN([C@H](C)CO)C(=O)c2cccc(NC(=O)C3CCOCC3)c2O[C@@H]1CN(C)Cc1ccccc1,0.2
C[C@H](CO)N1C[C@H](C)[C@@H](CN(C)S(=O)(=O)c2ccc(Cl)cc2)OCCCC[C@H](C)Oc2ccc(NS(=O)(=O)c3cn(C)cn3)cc2C1=O,-1.1
COc1ccc(S(=O)(=O)Nc2ccc3c(c2)CC(=O)N([C@@H](C)CO)C[C@@H](C)[C@H](CN(C)CC2CC2)O3)cc1,0.4
CC(C)NC(=O)Nc1ccc2c(c1)C(=O)N([C@@H](C)CO)C[C@H](C)[C@H](CN(C)C(=O)Nc1ccc(F)cc1)O2,2.0
C[C@@H]1CCCCO[C@H](CN(C)Cc2ccccc2)[C@H](C)CN([C@@H](C)CO)C(=O)c2cc(NC(=O)Nc3ccc(C(F)(F)F)cc3)ccc2O1,-0.6
C[C@H]1CN([C@@H](C)CO)C(=O)c2cccc(NC(=O)c3cnccn3)c2O[C@H]1CN(C)C,-0.3
C[C@H](CO)N1C[C@H](C)[C@@H](CN(C)S(=O)(=O)c2ccc(Cl)cc2)OCCCC[C@H](C)Oc2ccc(NS(C)(=O)=O)cc2C1=O,-0.6
COc1ccc(S(=O)(=O)N(C)C[C@@H]2Oc3ccc(NC(=O)C4CCCCC4)cc3CC(=O)N([C@H](C)CO)C[C@H]2C)cc1,0.4
C[C@@H]1CN([C@@H](C)CO)C(=O)Cc2cc(NC(=O)CCCN(C)C)ccc2O[C@@H]1CN(C)Cc1ccc(Oc2ccccc2)cc1,-0.3
C[C@@H]1CCCCO[C@@H](CN(C)C(=O)Nc2ccccc2)[C@H](C)CN([C@H](C)CO)C(=O)c2cc(NC(=O)CCCN(C)C)ccc2O1,0.0
C[C@@H]1CN([C@@H](C)CO)C(=O)c2cc(NS(C)(=O)=O)ccc2O[C@H]1CN(C)C(=O)Nc1ccccc1,-0.9
Cc1ccc(S(=O)(=O)Nc2ccc3c(c2)CC(=O)N([C@@H](C)CO)C[C@@H](C)[C@H](CN(C)C(=O)Nc2c(C)noc2C)O3)cc1,0.5
C[C@@H]1CN([C@H](C)CO)C(=O)c2cccc(NC(=O)c3cnccn3)c2O[C@@H]1CN(C)Cc1ccccc1,-1.3
C[C@H](CO)N1C[C@H](C)[C@@H](CN(C)S(=O)(=O)c2ccc(F)cc2)OCCCC[C@H](C)Oc2ccc(NC(=O)Nc3ccc4c(c3)OCO4)cc2C1=O,1.0
C[C@H]1CN([C@@H](C)CO)C(=O)c2cc(N(C)C)ccc2O[C@@H]1CN(C)S(=O)(=O)c1ccc(Cl)cc1,-0.8
O=C(NCc1ccccc1)[C@@H]1c2ccccc2C(=O)N(CC23CC4CC(CC(C4)C2)C3)[C@H]1c1ccc(CO)cc1,0.6
COc1ccc(CN(C)C[C@H]2OCCCC[C@@H](C)Oc3ccc(NC(=O)C4CCCCC4)cc3C(=O)N([C@H](C)CO)C[C@@H]2C)cc1,0.8
C[C@H]1CN([C@@H](C)CO)C(=O)Cc2cc(NC(=O)Nc3cccc4ccccc34)ccc2O[C@@H]1CN(C)CC1CCCCC1,-0.7
C=CCOC(=O)[C@H]1[C@@H]2C(=O)O[C@@H](c3ccccc3)[C@@H](c3ccccc3)N2[C@@H](c2ccc(OCCOC(=O)[C@H]3C[C@H]4C(=O)N[C@@H](CCCCNC(C)=O)C(=O)N4[C@H]3c3cccc(OCCO)c3)cc2)[C@]12C(=O)Nc1ccccc12,0.5
